Bioassay records from PubChem BioAssay.
UUG fidelity – modulators of yeast start codon fidelity, primary screen, whole organism, S. cerevisiae, single point, plate reader; S. cerevisiae UUG-firefly luciferase reporter, luminescence/redox ratio; activity score, % at 18.7 µM; actives 0.13% (n = 350,000);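 active = replicate mean at a twofold rise or more, about +100% in these data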;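 note: firefly luciferase made from a UUG start codon reports start codon fidelity; reporter light over untreated wells divided by growth signal over untreated wells; some hits fall short of that in this replicate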
MT1-MMP act inh – blockers of MT1-MMP proenzyme processing, primary screen, HT1080 RFP-PRO-GFP cells, GFP/RFP fluorescence; Matrix metalloproteinase-14 (Homo sapiens), P50281; GFP/RFP ratio fluorescence, overnight; percent of plate control window, DMSO zero; GFP/RFP ratio change, % at 20 µM; actives 0.061% (n = 360,000);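 active = GFP/RFP ratio change of at least 30% with cell ATP level not reduced by more than half and red fluorescence within 50% of control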; note: strong numbers were not always called active
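system = RFP-PRO-GFP reporter HT1080 cells | dosing = 20 µM single dose, 1% DMSO | timing = overnight cell settling, then overnight compound exposure, 37 °C, 5% CO2 | read-out basis = GFP/RFP fluorescence ratio | controls = DMSO and RFP-L50D-GFP cell wells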
PABP FP inh – PABP poly(A) RNA binding inhibitors, primary screen, biochemical, fluorescence polarization, uHTS; actives 1% (n = 290,000); inhibition, % at 35 µM; Polyadenylate-binding protein 1 (Homo sapiens), P11940; AID 2014, 2009;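 active = 50% or more with normal probe brightness, or confirmed in later tests; about a fifth of its hits are not listed in these tables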;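 note: calls also rest on retests at 20 µM and on dose response follow-up; controls were probe without protein and protein plus probe with vehicle; some compounds called inactive have numbers as strong as hits; many hits fall short of the cut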
Target sequence (P11940 whole entry, looked up): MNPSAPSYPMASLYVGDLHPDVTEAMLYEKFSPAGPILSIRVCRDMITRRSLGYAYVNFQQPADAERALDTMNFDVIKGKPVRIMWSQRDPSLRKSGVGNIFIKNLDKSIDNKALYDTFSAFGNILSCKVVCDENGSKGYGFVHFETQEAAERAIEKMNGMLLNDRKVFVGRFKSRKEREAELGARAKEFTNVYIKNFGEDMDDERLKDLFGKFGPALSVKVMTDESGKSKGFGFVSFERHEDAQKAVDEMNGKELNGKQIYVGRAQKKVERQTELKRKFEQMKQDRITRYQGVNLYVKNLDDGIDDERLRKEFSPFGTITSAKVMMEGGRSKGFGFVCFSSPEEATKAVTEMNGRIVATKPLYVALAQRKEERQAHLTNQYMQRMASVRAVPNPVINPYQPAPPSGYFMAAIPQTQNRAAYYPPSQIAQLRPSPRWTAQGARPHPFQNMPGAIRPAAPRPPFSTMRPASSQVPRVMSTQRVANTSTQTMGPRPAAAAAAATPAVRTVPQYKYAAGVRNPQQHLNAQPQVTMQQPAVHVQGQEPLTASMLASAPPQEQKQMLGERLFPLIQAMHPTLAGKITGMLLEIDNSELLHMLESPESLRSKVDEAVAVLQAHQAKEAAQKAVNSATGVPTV
eIF4H inh – human eIF4H binding inhibitors, primary screen, translation initiation inhibitor project, biochemical, uHTS, fluorescence polarization; Eukaryotic translation initiation factor 4H (Homo sapiens), Q15056; actives 0.94% (n = 290,000); eIF4H fluorescence polarization binding assay; inhibition, % at 35 µM;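 active = 50% or more with normal probe brightness, or confirmed in later tests; about a fifth of its hits are not listed in these tables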;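 note: calls also rest on retests at 20 µM and on dose response follow-up; 0% = protein and probe with vehicle and 100% = probe without protein; strong numbers were not always called active; many hits fall short of the cut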
CSC inhib – cancer stem cell viability inhibitors, primary screen, luminescence; actives 1.1% (n = 300,000); inhibition, % at 7.5 µM; cancer stem cell-like cells viability;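 active = mean at 75% or more and at least half the replicates too; tested in HMLE shEcad cells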;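 note: 0% = median of negative and 100% = median of positive control wells; the first replicate is given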
Rce1 inhib – yeast Rce1p protease inhibitors, primary screen, biochemical, fluorescence, cell-free homogeneous; calls only; yeast membranes, quenched prenylated peptide cleavage fluorescence; actives 0.27% (n = 290,000); CAAX prenyl protease 2 (Saccharomyces cerevisiae (strain ATCC 204508 / S288c)), Q03530; AID 2563, 2010;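 active = fall in fluorescence gain of 50% or more versus controls, with final raw signal at or below 3038400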;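 note: plate controls were neutral control wells for no effect and wells lacking membranes for full effect; tested at 10 µM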
Env fusion inh – inhibitors of HIV-1 Env-driven cell-cell fusion, primary screen, HeLa-JRFL effector, CEM21 target cells, luciferase | inhibition, % at 12.3 µM | actives 1.1% (n = 360,000) | AID 651610, 2012;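 active = mean replicate inhibition score of at least 50 and every replicate individually at or above 50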;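 note: 0% = plate neutral controls and 100% = maraviroc near 300 nM; one replicate is shown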
eIF4H inh retest – recorded beside eIF4H inh, whose call it bears; inhibition, %; compound at 20 µM; confirmation average;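 mean of two retest wells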
PABP FP inh retest – further read-out of PABP FP inh, marked with its call; inhibition, %; compound at 20 µM; confirmation repeats;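 mean of two retest wells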
MT1-MMP act inh RFP – further read-out of MT1-MMP act inh, marked with its call; RFP signal change, %; measured here: RFP expression control read;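 0 = vehicle wells; hits needed this value within 50% of zero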
The depositor's hits bear a star; i = inactive; x = not tested or not shown. No enrichment for hits; about 2.9% have a hit in one of these screens.

SMILES	UUG fidelity	MT1-MMP act inh	MT1-MMP act inh RFP	PABP FP inh	eIF4H inh	CSC inhib	Rce1 inhib	Env fusion inh	others
O=C(NCCS(=O)(=O)N1CCN(c2ccccc2F)CC1)c1cccc(Br)c1	-16	0	2	5	-7	1	i	6
Cc1ccccc1-c1nsc(SCC(=O)c2ccc(Cl)cc2)n1	x	2	6	-22	-12	36	i	17
Cc1cc(C)cc(C(=O)N[C@@H](C)C(=O)N2CCC3(CC2)NCCc2[nH]cnc23)c1	-15	0	2	x	x	-19	i	-2
COc1ccc(F)cc1S(=O)(=O)Nc1cc2c3c(c1)CCC(=O)N3CCC2	-17	8	-1	x	x	-15	i	-11
CCCCC1(CC)COC(c2ccccc2)OC1 (stereo not given)	-16	1	5	x	x	x	x	-12
Cc1c(NC(=O)c2cc3c(s2)-c2ccccc2OC3)cccc1[N+](=O)[O-]	-8	-9	-22	-7	-8	20	i	87*
Cc1ccc(C2=NCCn3c2c2ccc([N+](=O)[O-])cc2[n+]3[O-])cc1	8	-4	-3	x	x	-2	i	-5
CC(=O)Nc1ccc(S(=O)(=O)N(C)CC(=O)OCC(=O)NNC(=O)c2ccccc2F)cc1	-2	0	7	x	x	1	i	7
Cc1cc(C)cc(NC(=O)CSc2nc3ccccc3nc2N2CCCCC2)c1	24	-8	-4	-3	4	14	i	x
COc1cc(Cl)c(C)cc1NC(=O)CC1CCCC1	-16	-4	-1	0	-1	-13	x	14
CCN(CC(=O)Nc1cccc(F)c1)Cc1nc2ccccc2c(=O)[nH]1	-13	3	-4	-12	12	9	i	-7
CCn1cc(CCC(=O)NC(C)c2ccccc2)c2ccccc21 (stereo not given)	2	7	3	6	6	-8	i	-1
Cc1ccc(NC(=O)CC(=O)NCCN2CCOCC2)cc1	-8	4	3	1	-1	-22	x	-75
COc1ccc(CCNC(=S)NC2CCN(Cc3ccccc3)CC2)cc1	x	-5	-9	31	2	-6	i	9
CCCS(=O)(=O)NC(=O)C1(C)CCN(C(=O)c2ccc(C(=O)OC)cc2)C1 (stereo not given)	-12	5	6	x	x	x	x	0

Retrieved by compound from the list above (four):
SMILES	UUG fidelity	MT1-MMP act inh	MT1-MMP act inh RFP	PABP FP inh	eIF4H inh	CSC inhib	Rce1 inhib	Env fusion inh	others
Cc1ccccc1-c1nsc(SCC(=O)c2ccc(Cl)cc2)n1	x	2	6	-22	-12	36	i	17
O=C(NCCS(=O)(=O)N1CCN(c2ccccc2F)CC1)c1cccc(Br)c1	-16	0	2	5	-7	1	i	6
Cc1c(NC(=O)c2cc3c(s2)-c2ccccc2OC3)cccc1[N+](=O)[O-]	-8	-9	-22	-7	-8	20	i	87*
Cc1ccc(NC(=O)CC(=O)NCCN2CCOCC2)cc1	-8	4	3	1	-1	-22	x	-75

Next entries follow:
SMILES	UUG fidelity	MT1-MMP act inh	MT1-MMP act inh RFP	PABP FP inh	eIF4H inh	CSC inhib	Rce1 inhib	Env fusion inh	others
Cc1ccc(S(=O)(=O)N(C)C)cc1NC(=S)N1CCCCC1CO (stereo not given)	x	1	3	-12	-5	-1	i	6
CSC1=NCCN1S(=O)(=O)c1ccc(NC(C)=O)cc1	x	0	1	-5	-4	-10	i	-7
Cc1nc(SCC(=O)N2CCNC2=O)c2ccccc2n1	-9	-7	-7	x	x	-4	x	22
O=C(Nc1ccc(Cl)c(C(F)(F)F)c1)[C@@H]1CC=C[C@@H]2CCN(C3CCCCC3)C(=O)[C@@H]21	-12	-3	-4	x	x	-19	i	-9
Cn1nc(C(=O)NCC2COc3ccccc3O2)c2ccccc2c1=O (stereo not given)	-1	0	-3	x	x	x	x	7
CC(C)c1ccc(NC(=O)Nc2nc(C(N)COCc3ccccc3)cs2)cc1 (stereo not given)	-15	8	-11	x	x	x	x	25
O=C(Cc1cccs1)N1CCN(c2ccc([N+](=O)[O-])cc2)CC1	x	2	-7	-12	6	5	i	24
FC(F)(F)c1ccncc1-c1nnnn1-c1ccc(Cl)cc1	-11	-1	-1	5	3	-3	i	-3
Clc1ccc(/C=N/Nc2nc(Cl)nc3ccccc23)cc1	-7	-1	-2	10	1	19	i	-177
Cc1ccc(S(=O)(=O)N2C[C@@H](C)[C@]3(C2)[C@H](O)[C@H](OC(=O)NCc2ccccc2)C[C@H]2C(=O)N(c4ccccc4)C(=O)[C@H]23)cc1	-8	5	-2	x	x	x	x	-25
CSCCC(NS(=O)(=O)c1ccc(Cl)cc1)C(=O)OCC(=O)c1c(C)[nH]c2ccccc12 (stereo not given)	x	x	x	4	0	22	i	-19
COc1ccc(N2CCN(C(=O)CN3CCN(C(c4ccccc4)c4ccccc4)CC3)CC2)cc1	x	-9	-3	-3	-8	x	i	-1
Cc1ccc([N+](=O)[O-])cc1S(=O)(=O)Nc1ccc(N2CCOCC2)cc1	x	3	1	-18	4	-5	i	-37
O=[N+]([O-])c1ccc(Oc2ccc(/C=N/O)cc2)nc1	x	4	3	1	1	14	i	-9
c1ccc2nc(N3CCOCC3)c(N3CCCC3)nc2c1	17	-1	-1	x	x	x	x	6
CCC1CCCCN1C(=S)NC(=O)c1cc(S(=O)(=O)N2CCOCC2)ccc1C (stereo not given)	x	2	1	1	-10	-10	i	22
CC(=O)Nc1cc(NC(C)=O)ncn1	-18	-1	-2	-1	-2	-4	i	7
CCc1ccc(C(=O)NNC(=O)c2ccc3c(=O)n4c(nc3c2)CCC4)cc1	-12	3	4	-1	3	x	i	-241
CC1(C(=O)Nc2ccc3c(c2)OCCO3)CCN1C(=O)c1ccco1 (stereo not given)	-9	3	5	x	x	x	x	-7
COc1ccc(C/C(N)=N/OC(=O)c2ccc(Cl)cc2)cc1	x	-4	-4	-4	-3	9	i	-12
CCCOc1ccc(C2C(C(=O)c3ccc(C)o3)=C(O)C(=O)N2CCN2CCOCC2)cc1OC (stereo not given)	-6	-6	6	3	0	x	i	-2
COc1ccc(C2NC(=O)c3ccccc3O2)cc1 (stereo not given)	-5	-2	1	3	9	-12	i	18
Cn1nc(N2CCN(S(=O)(=O)c3ccccc3)CC2)c(=O)n(C)c1=O	-10	1	3	x	x	-10	x	-2
Cc1c(CNCCc2ccc(Cl)cc2)c(C(=O)O)c(C)n1-c1ccccc1	-8	-1	-2	-4	-5	x	i	13
CCOC(=O)C1CCN(C(=O)c2cccc(S(=O)(=O)N3CCc4ccccc43)c2)CC1	8	-2	-1	x	x	-17	x	4
O=S(=O)(c1cccc(C(F)(F)F)c1)N1CCN(C(=S)NC2CC2)CC1	x	1	3	-2	2	20	i	-6
O=C(NC(=S)N1CCCC(C(F)(F)F)C1)c1ccc(F)cc1 (stereo not given)	-33	6	4	3	7	-5	x	-13
CCCNC(=O)Cn1c(=O)n(C)c2ccccc21	x	1	4	3	-2	-9	i	7
COc1ccccc1CNC(=O)COC(=O)c1cc(S(=O)(=O)N2CCOCC2)ccc1Cl	x	1	4	x	x	4	i	-10
CCOc1ccc(NC(=O)c2nsc(Cl)c2Cl)cc1	-14	4	-3	4	1	-7	i	-114
CC(=O)Nc1ccc(S(=O)(=O)N2CCC(NC(=O)C(Cc3cccc(F)c3)NC(C)=O)CC2)cc1 (stereo not given)	1	-3	0	9	2	x	i	7
O=C(COC(=O)c1ccc(Br)o1)NC1CCCc2ccccc21 (stereo not given)	-3	5	1	x	x	x	x	-7
Cc1ccc2nc3cc([N+](=O)[O-])cc([N+](=O)[O-])c3cc2c1	x	-38	-10	0	26	x	x	-28
Cc1cc(C)nc(N2CCC(C(=O)NNC(=O)c3ccc(Cl)cc3)CC2)n1	-18	-2	-3	-1	75	-15	i	6	eIF4H inh retest=1;PABP FP inh retest=11
COc1c(Br)cc([N+](=O)[O-])c(OC)c1C(=O)NC(=O)Nc1cc(Cl)cc(Cl)c1	-12	-2	-21	1	-1	x	i	-28
Cc1nc(SCC(=O)Nc2ccc(S(=O)(=O)N3CCOCC3)cc2)c2c(C)c(C)sc2n1	-9	-11	-5	x	x	21	x	64*
O=C(Nc1cccc2ccccc12)N1CCCN(c2c(Cl)cncc2Cl)CC1	x	-8	-14	4	7	18	i	-2
COc1cc(CN2CCNC(=O)C2CC(=O)N2CCCN(C(C)=O)CC2)cc(OC)c1 (stereo not given)	-13	-1	2	-1	11	0	i	-5
COC(=O)c1c(C)noc1-c1snnc1C	-16	8	1	-4	-6	-10	i	0
Cc1cccc(Cn2c(=O)oc3ccc(C)cc32)c1	-18	-3	0	-2	0	4	i	x
COc1cccc(CC(=O)Nc2sc3c(c2C(N)=O)CCCC3)c1	-13	0	-5	4	2	1	i	-1
CCOc1ccc(N(CC(=O)NC2CCCCC2)C(=O)Cn2nnc(-c3ccc(C)o3)n2)cc1	2	-1	-1	4	-16	x	i	-1
CC1CC(C)CN(c2cc3c(cc2[N+](=O)[O-])C(=O)N(c2ccccc2)C3=O)C1 (stereo not given)	-6	-2	-1	-3	1	-28	i	-13
CCOC(=O)C1(Cc2ccccc2)CCN(Cc2cn(CC(=O)OC)c3ccccc23)CC1	x	-1	0	-3	1	-24	x	-46
CCOC(=O)C(=O)N1CCN(c2nc(-c3ccc(Cl)cc3)cs2)CC1	-1	4	2	2	-2	-14	i	15
CC(C)Cc1cc(CNC(=O)C2CCC(=O)N(CCc3cccc(F)c3)C2)on1 (stereo not given)	x	1	4	-3	-10	-6	i	-8
O=C(c1ccc2c(c1)OCO2)N1CCN(S(=O)(=O)c2ccc(Br)cc2Cl)CC1	-8	-3	-2	x	x	x	x	2
CC(=O)c1ccc(NS(=O)(=O)c2c(C)cc(C)cc2C)cc1	x	-1	-5	-2	-3	4	i	5
COc1ccc(NC(=O)/C(C#N)=C/c2ccc(OCc3ccccc3F)cc2)cc1	x	7	2	15	-6	4	i	-26
Cc1cc(N2CCOCC2)cc(C)[n+]1[O-]	-18	6	6	-3	6	-2	i	-5
O=C(N/N=C/c1coc2ccccc2c1=O)c1cc(Br)c(O)c(Br)c1	-16	-5	-2	27	-7	-10	i	6
COc1cccc(C2CCCN2Cc2nc(CCC(C)C)no2)c1 (stereo not given)	-11	3	4	-2	-9	-2	i	13
Cc1ccc(N(CC(=O)NCCc2ccc(F)cc2)S(=O)(=O)c2ccc(Cl)c([N+](=O)[O-])c2)c(C)c1	-15	-4	-10	8	0	80*	i	3
CN(C)/C=N/c1ncc(C(=O)c2ccc(Cl)cc2)s1	-15	1	-2	2	5	10	i	-29
CCN(CCCNC(=O)c1ccc(N2CCCC2=O)cc1)c1cccc(C)c1	-12	-5	-3	-6	-8	17	i	20
N/C(=N\OC(=O)Cc1ccccc1[N+](=O)[O-])c1cccc(Br)c1	x	0	2	5	-4	14	i	-5
CSC1=NC(=O)/C(=C\c2cccc3ccccc23)S1	x	-3	-2	27	-3	32	i	3
CC(=O)C1=C(C)OC(N)=C(C#N)C1c1cccc2ccccc12 (stereo not given)	x	-6	-8	25	11	-21	i	7
CCCCn1c2c(c(=O)n(C)c1=O)C(c1ccc(OC)cc1)N1CCCCCC1=N2 (stereo not given)	6	1	2	-4	-12	9	i	-104
CCCNC(=O)C1(C)CCN(C(=O)c2ccc3sccc3c2)C1 (stereo not given)	-2	0	4	x	x	x	x	-10
O=C(OCCN1CCOCC1)C(c1ccccc1)c1ccccc1	x	6	0	22	-14	-11	i	x
CC1(C)CC(=O)c2cc3c(nc2C1)CC(C)(C)CC3=O	x	2	4	-2	-2	-4	i	-85
